gsp ag: gsp mutant agonism; 340,000 tested, 0.13% active; Potency, µM (titrated, usually from 76.9 µM), inactives show top-dose activation (cAMP increase), actives largely listed as activators; gsp mutant cells, cAMP HTRF, 30 min; control for the full effect not named in the record; active = well fitted activation curve with a large enough effect; inconclusive = small, poorly fitted or top-dose-only effect, or another doubt; inactive = no such curve, though single readings can be large or run the other way; cell line not stated here;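 note: phosphodiesterase inhibitor Ro 20-1724 added with compounds to block cAMP breakdown; potency is the fitted concentration of half-maximal effect; nearly all actives have a fitted effect of over 60% in size; about a fifth of the inactives were tested at one dose only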
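Cells stably selected in G418 were plated at 2000/well, grown 16-24 hr, then given compounds in DMSO with the PDE inhibitor […] (300 uM solution added) for 30 min at 37C; cAMP was read by HTRF.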
D2 ag: agonists of human D2 dopamine receptor (beta-arrestin); P14416; AID 624465; DiscoveRx PathHunter D2 beta-arrestin, luminescence, 90 min; 100% = 57 uM dopamine signal; 360,000 tested, 0.084% active; activation, % (no concentration beside the values); in the data active = activation above about 40%; inconclusive = about 15% to 40%; inactive = below about 15%; note: compound concentration not given in the record; the text of the record calls up to 30% inactive
Target sequence (P14416 whole entry, looked up): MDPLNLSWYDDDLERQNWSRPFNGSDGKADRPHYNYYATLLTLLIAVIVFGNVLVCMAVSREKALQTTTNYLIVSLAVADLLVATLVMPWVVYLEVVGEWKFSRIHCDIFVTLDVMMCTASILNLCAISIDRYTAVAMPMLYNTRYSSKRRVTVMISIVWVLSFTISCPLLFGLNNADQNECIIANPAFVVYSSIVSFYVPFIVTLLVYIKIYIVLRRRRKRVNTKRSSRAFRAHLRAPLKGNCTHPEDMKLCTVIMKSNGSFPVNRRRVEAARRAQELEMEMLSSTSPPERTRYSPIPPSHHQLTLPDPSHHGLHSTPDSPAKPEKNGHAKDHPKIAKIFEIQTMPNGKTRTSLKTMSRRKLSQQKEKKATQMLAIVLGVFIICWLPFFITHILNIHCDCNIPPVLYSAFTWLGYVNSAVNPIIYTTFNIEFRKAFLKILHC
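DiscoveRx PathHunter D2 beta-arrestin cells (2,100/well) attached overnight, then compound-stimulated 90 min at 37 C in HBSS/10 mM HEPES/0.1% Tween-20 buffer; beta-galactosidase complementation read by luminescence after 1 h at ambient temperature. Dopamine 57 uM final (EC100) as control.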
ClpP mod: qHTS Assay for Activators of ClpP. ATP-dependent Clp protease proteolytic subunit (Bacillus subtilis (strain 168)), P80244. purified B. subtilis ClpP, FRET peptide cleavage, 20 min. Potency, µM (doses to about 57.5 µM), without a hit: at the highest dose activity change, negative = active. 340,000 tested, 1.9% active. AID 651965, 2013; active = well fitted falling curve with a large enough effect; inconclusive = small, poorly fitted or top-dose-only effect; inactive = no such curve, though single readings can be large or run the other way; note: potency is the fitted concentration of half-maximal effect; the source files actives as falling curves though it sought activators and does not explain the sign; nearly all actives have a fitted effect of over 65% in size; many hits overshoot -100%
Target sequence (P80244 whole entry, looked up): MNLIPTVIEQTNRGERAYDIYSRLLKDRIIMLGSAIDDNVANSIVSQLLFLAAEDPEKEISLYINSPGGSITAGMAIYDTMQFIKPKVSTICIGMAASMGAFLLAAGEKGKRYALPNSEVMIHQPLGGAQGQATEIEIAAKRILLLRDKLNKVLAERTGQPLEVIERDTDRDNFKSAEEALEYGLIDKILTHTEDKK
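FRET quenching reversal measured ClpP activation: 10 microg/mL B. subtilis ClpP at pH 8 with the FRET-FV decapeptide, read at 430 nm after 320 nm excitation. The 20-min minus 0-min signal was scaled between DMSO/no-enzyme wells and ADEP (5.8 microM final).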
Menin-MLL FL inh: inhibitors of human menin-MLL interaction, wild-type MLL peptide. 290,000 tested, under 10 active. Fluorescence polarization, fluorescein-MLL peptide displacement from menin. FP activity change, % at 61.4 µM; inconclusive = falling polarisation curve, or a change in total fluorescence; inactive = total fluorescence flat and polarisation flat or rising; no compound was filed as active; the % refers to the polarisation; negative = inhibition;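 note: % of control where 0% means no effect; inhibitors lower the polarisation; unlabelled MLL peptide was the positive control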
gsp antag: gsp mutant antagonism; gsp-mutant cells, cAMP HTRF, 30 min; control for the full effect not named in the record; Potency, µM (series often up to 76.9 µM), inactives show at the highest dose activity change, negative = inhibition, hits mostly inhibitors; 340,000 tested, 0.4% active; active = falling curve of any shape with a large fitted effect; inconclusive = falling curve, mostly with a smaller effect; inactive = flat or rising curve; cell line not stated here;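 note: intracellular cAMP measured with PDE inhibitor Ro 20-1724 present during compound exposure; potency is the fitted concentration of half-maximal effect; % is set by controls: 0 for no effect and ±100 for the full control effect; nearly all actives have a fitted effect of over 65% in size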
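Cells in G418 medium, seeded 16-24 h, 37C; buffer exchange to DPBS + 1 mM CaCl2, 0.5 mM MgCl2, 0.05% BSA; cpds in DMSO + […] (300 uM stock), 30 min 37C; HTRF cAMP detection.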
PINK1 modulator: changes PINK1 expression. PINK1 immunofluorescence, high-content cytometry, 24 h. AID 624263. 410,000 tested, 0.2% active. Potency, µM (top dose mostly 76.6 µM), for inactives: top-dose activation (PINK1 increase), usual class: activators; active = well fitted activation curve with a large enough effect; inconclusive = small, poorly fitted or top-dose-only effect; inactive = flat fitted curve, though single readings scatter; cell line not stated here;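 note: potency is the fitted concentration of half-maximal effect; % of control where 0% means no effect; nearly all actives have a fitted effect of over 65% in size; a mitochondrial uncoupler was the plate control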
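PINK1 protein level read as immunofluorescence by microplate cytometer in a fixed, stained stable cell line after 24 h exposure to five compound concentrations, with CCCP as control.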
Sfp inh: inhibitors of Bacillus subtilis Sfp phosphopantetheinyl transferase; Q9F4F7; Biochemical Sfp PPTase activity, qHTS; Potency, µM, inactives show max response, negative = inhibition, usual class: inhibitors; 310,000 tested, 3.5% active; active = well fitted inhibition curve with a large enough effect; inconclusive = small, poorly fitted or top-dose-only effect, or another doubt; inactive = no such curve, though single readings can be large or run the other way;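 note: the enzyme is Sfp with the accession as filed and its product quenches rhodamine fluorescence; potency is the fitted concentration of half-maximal effect; 0% = enzyme reaction without inhibitor and -100% = no enzyme wells; top concentration of the series not given in the record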
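Fluorescence-quenching assay: 15 nM Sfp-PPTase preincubated 15 min at room temperature with compound, then 5 uM rhodamine-CoA and 12.5 uM BHQ-2-labelled YbbR peptide added. Fluorescence (ex 525/em 598 nm) read at start and after 30 min; difference gives rate.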
Starred values were filed as active, the others as inactive; ? = inconclusive; . = not tested or not shown; & = joins results of further samples; [ ] = another dose, or the depositor's remark.

SMILES | gsp ag | D2 ag | ClpP mod | Menin-MLL FL inh | gsp antag | PINK1 modulator | Sfp inh
COc1ccc(NC(=O)c2ccc(NC(=O)C(C)C)cc2)c([N+](=O)[O-])c1 | 8%[15.4 µM] | 1.3 | 2.0% | . | 8% | ? | 20%
CN(CCn1ccnc1)Cc1cn(Cc2ccccc2)nc1-c1ccc2c(c1)OCO2 | 37% | -1.3 | 1.1% | -2.0 | 0% | 1.4% | 8%
Cc1noc(C)c1C(=O)NCCc1ccc(S(N)(=O)=O)cc1 | -24% | -3.6 | -1.1% | 4.3 | 13% | -1.2% | 14%
CC(C)NC(=O)C(c1ccc(F)cc1)N(C(=O)CCC(=O)Nc1ccccn1)C1CCCC1 (configuration not stated) | 6%[15.4 µM] | -1.9 | . | -3.9 | -8% | -0.7% | 13%
O=C1C=C(c2cccc(O)c2)C[C@@H](c2ccc(F)cc2)C1 | . | -0.3 | -3.4% | . | -5% | 0.1% | .
CCOCCn1c(-c2ccccc2)nc2ccccc21 | -1%[15.4 µM] | -1.2 | . | 0.6 | -6% | 0.5% | 8%
Cc1noc(C)c1-c1ccc2ncnc(NC3CCNCC3)c2c1 | . | . | . | -1.0 | . | 0.5% | -6%
O=C(NC1CCSc2ccccc21)c1ccccc1Cl (configuration not stated) | -26% | -2.4 | -0.9% | . | 10% | 0.1% | 4%
COC(=O)c1sccc1NC(=O)c1ccc(C#N)cc1 | 26% | -3.8 | -6.1% | -4.4 | 2% | -2.5% | -12%
CCCCCCNCc1ccc(Br)cc1 | 21% | -2.0 | 0.7% | 1.8 | 1% | . | 4%
O=C(COc1ccc(Cl)cc1Cl)Nc1ccccn1 | ? | 1.0 | -2.1% | 0.2 | -8% | -6.7%[38.3 µM] | 15%
CCc1ccc(C)[n+](CC(=O)c2cccs2)c1 | ? | 4.4 | . | 1.6 | 2% | -0.5% | 5%
CCC1CCCCN1S(=O)(=O)c1ccc(NC(=O)C2CCCO2)cc1 (configuration not stated) | -70%[inhibitor] | -1.3 | -4.8% | . | 6% | 0.9% | 4%
O=C(Nc1nnc(CCN2CCCCC2)s1)c1ccccc1 | 7%[15.4 µM] | -0.2 | -0.5% | 1.9 | 4% | -0.5% | -4%
Cc1cc(C)cc(COc2ccc3c(C)c(CC(=O)O)c(=O)oc3c2C)c1 | ? | 3.6 | . | -6.4 | -26% | 0.3% | -2%
O=C1CCCC(O)=C1C=Nc1ccc(O)cc1 | ? | 3.2 | -1.9% | 0.6 | 6% | -0.9% | 11%
C=CCn1c(SCc2nc3sc(C(=O)O)c(C)c3c(=O)[nH]2)nnc1-c1ccccc1 | -1%[15.4 µM] | -3.9 | . | 11 | 7% | 1.1% | 12%
CC1(CC(=O)N/N=C/c2ccc(-c3ccc(C(=O)O)cc3)o2)OCCO1 | ? | 0.8 | ? | 1.6 | -10% | . | -20%
CCCOc1ccc(/C=C2\SC(N)=NC2=O)cc1OC | ? | -0.7 | -4.4% | ? | -3% | -0.5% | 9%
O=S(=O)(NC12CC3CC(CC(C3)C1)C2)c1ccc(F)cc1 | -2% | -1.1 | 0.6% | 0.8 | 1% | 1.9%[38.3 µM] | 13%
Cn1c(=S)sc2ccc3ccccc3c21 | ? | -2.7 | 1.6% | . | 18% | -3.3% | .
COc1cc(-c2ccc3oc(-c4ccsc4)cc(=O)c3c2)cc(OC)c1OC | -40%[inhibitor] | 8.3 | -17% | . | ? | 2.2% | .
CN(Cc1cccc(F)c1)C(=O)CNS(=O)(=O)c1ccc2ccccc2c1 | -18% | 1.0 | . | 0.9 | 8% | 14% | 14%
CN(Cc1ccccc1)c1ccc(N2C(=O)CCCC2=O)cc1[N+](=O)[O-] | 11% | -5.1 | 4.7% | -1.1 | -7% | 1.1% | 6%
COc1ccccc1OCCn1c(=O)oc2ccc(C)cc21 | -1%[15.4 µM] | -2.5 | . | -0.3 | 4% | -1.2% | 1%
Cc1ccccc1S(=O)(=O)NC(=O)C1(C)CCN1C(=O)COc1ccc(Cl)cc1 (configuration not stated) | . | -4.3 | 4.0% | . | . | -0.1% | .
C[C@H]1CC[C@]2(O[C@@H](CCO)C[C@@H](O)[C@@H]2O)O1 | ? | -2.0 | -1.2% | . | 11% | 1.1% | .
COc1ccc(-c2nc(N)ncc2-c2csc(C)n2)c(O)c1OC | ? | -5.9 | . | -1.1 | -10% | -2.1% | 17%
CC(C)NC(=O)C(OC(=O)c1ccccc1)C(OC(=O)c1ccccc1)C(=O)O (configuration not stated) | -25% | -5.1 | -6.3% | 7.7 | 2% | 0.6% | 15%
CC(=O)Nc1ccc(S(=O)(=O)N(CC(=O)NC2CC2)Cc2ccccc2)cc1 | 0% | -3.4 | 1.5% | . | 2% | 1.9% | .
Cc1coc(C)c1C(=O)CC1(O)C(=O)N(Cc2ccccc2)c2ccccc21 (configuration not stated) | -45%[inhibitor] | -1.6 | -3.5% | -0.6 | 1% | 4.3% | ?
Nc1nnc(SCC(=O)c2ccc3c(c2)NC(=O)CO3)s1 | -3% | 7.3 | 0.6% | 0.4 | -7% | 1.3% | -5%
O=C(O)c1ccc(NS(=O)(=O)/C=C/c2ccccc2)cc1 | -8% | -3.0 | -1.3% | -0.2 | 4% | 2.6% | 3%
Cc1cc(C)c(CSc2ncnc3nc[nH]c23)c(C)c1 | -1%[15.4 µM] | -2.5 | . | -3.6 | -1% | 5.4% | ?
CC(C)(C)C(=O)Nc1nc(NC(=O)C(C)(C)C)nc(-c2ccccc2Cl)n1 | 18% | -4.6 | . | 30[activator] | -7% | 0.8% | 27%
CCC(=O)Nc1sc2c(c1C#N)CC(C)(CC)OC2 (configuration not stated) | 5% | 1.0 | -4.8% | 2.3 | -6% | . | 56µM*
c1ccc(-c2csc(CN3CCCCC3)n2)cc1 | 13% | -1.7 | . | . | 15% | 13% | .
Cn1nc(C(=O)NCc2cccs2)c2ccccc2c1=O | -16% | 2.6 | -1.2% | 9.5 | 6% | 1.3% | -29%
Cc1nnc(NC(=O)C(C)Oc2ccc3c(C)cc(=O)oc3c2)s1 (configuration not stated) | 28% | -0.7 | ? | -1.6 | -9% | -0.6% | -10%
CC(C)CCn1nnnc1C(c1ccccc1)N1CCC(C(N)=O)CC1 (configuration not stated) | -1% | -1.3 | 1.3% | -0.9 | 14% | -2.3% | -18%
C/C(CC(=O)Nc1cccc(Cl)c1Cl)=N\NC(=O)c1ccccc1C | 1% | 0.5 | . | 10 | -13% | -2.9% | ?
Cc1ccc2nc(-c3cccc(SC4CCCCC4)c3)c(NC3CCCCC3)n2c1 | 8% | -2.5 | ? | . | 4% | 7.6%&4.2% | .
CN(C)c1nc(OCCNC(=O)Nc2ccccc2)nc(N2CCOCC2)n1 | ? | 0.7 | 0.0% | -0.8 | 2% | -0.2% | 17%
Cc1cccc(N=Cc2ccccc2O)c1C | 8% | -3.0 | 0.8% | . | . | -0.3% | .
c1ccc(C(c2ccccc2)N2CCN(c3nc4ccccc4n4cnnc34)CC2)cc1 | 18% | -4.4 | -4.8% | -0.4 | 3% | 2.9% | -14%
CC1CCCC(NC(=O)CCS(=O)(=O)c2ccc3c(c2)NC(=O)CS3)C1C (configuration not stated) | 8% | 2.8 | 0.9% | . | 6% | -0.5% | 18%
COC(C(=O)Nc1cccc([N+](=O)[O-])c1)c1ccccc1 (configuration not stated) | ? | -1.8 | -1.7% | 1.4 | -2% | 1.9% | 2%
COc1ccc(-c2nsc(SCC(=O)NCC3CCCO3)n2)cc1 (configuration not stated) | 10% | 1.9 | 2.1% | -0.2 | -14% | 0.5% | -1%
OCC[C@H]1C[C@H](O)[C@@H](O)[C@]2(CCCO2)O1 | 3% | -4.7 | -1.0% | . | 11% | 0.5% | .
CCSC1=C(C#N)C(c2ccc(C)o2)CC(=O)N1 (configuration not stated) | 10%[15.4 µM] | -4.9 | . | 1.8 | 5% | 0.7% | -5%
Cc1ccc(-n2ncc3c2CCCC3NC(=O)c2csnn2)cc1C (configuration not stated) | -29% | -8.0 | 1.6% | -2.8 | -2% | -1.3% | 4%
CCN(CC)CCCC(C)n1c(C)cc(C(=O)NS(=O)(=O)c2ccc(C)cc2)c1C (configuration not stated) | ? | -2.6 | 0.3% | . | . | -1.4% | .
O=C(NN1C(=O)/C(=C/c2ccc(O)c(O)c2)SC1=S)c1ccccc1 | ? | -8.3 | . | ? | -10% | -0.3% | -26%
CN1CCc2c(sc3nc(SCC(=O)N4CCOCC4)n(-c4ccc(Cl)cc4)c(=O)c23)C1 | ? | -4.0 | 3.9% | 2.5 | -10% | 2.9% | 5%
O=C(CC1SC(=Nc2ccc(O)cc2)NC1=O)Nc1ccccc1 (configuration not stated) | -21%[15.4 µM] | -1.1 | . | 6.4 | 13% | -2.4% | 17%
O=C(c1ccc(Cl)cc1)N1CCN(c2ncccn2)CC1 | -13%[15.4 µM] | -0.7 | -0.8% | -0.1 | 8% | 3.2% | 17%
CCCN(C(=O)c1ccco1)c1nnc(-c2cccc(C)c2)s1 | 5% | 0.1 | -5.4% | 0.2 | 24% | 4.3% | -20%
CCOC(=O)c1cc2sccc2n1CCCN1C(=O)c2ccccc2C1=O | 7% | 0.1 | 0.0% | 0.1 | -18% | -1.7%[38.3 µM] | 7%
CC1CCN(CCCCOc2ccccc2F)CC1 | 2% | -3.3 | . | 1.0 | 15% | 2.1% | -6%
COc1ccc(N2CCN(CCC(=O)c3ccc4ccccc4c3)CC2)cc1 | -11% | -0.7 | 5.7% | -7.9 | -28% | -0.9% | -9%
CC(=O)c1ccc(N2CCN(S(=O)(=O)c3c(C(=O)N4CCCCC4)c(C)n(C)c3C)CC2)cc1 | ? | -0.4 | -13% | . | -4% | 1.0% | -3%
COc1ccccc1N1CCN(CC(=O)Nc2nc(C)c(C(=O)N(C)C)s2)CC1 | 13% | 3.4 | -2.6% | -6.7 | -4% | 0.1% | ?

Bioassay records: PubChem, National Center for Advancing Translational Sciences (NCATS)
